Screening data: PubChem, several laboratories
Beta cell apopt = blocks beta cell apoptosis; INS-1E cytokine-induced death, ATP luminescence, 48 h; percent of positive-control rescue, neutral wells zero; protection from apoptosis, % (no concentration beside the values); actives 0.8% (n = 300,000);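 active means all replicates at 75% or more, or half of them and the mean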;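 further: 0% = cytokine-treated negative control wells and 100% = positive control rescue; higher means more ATP so stronger rescue from cytokine killing; wells of about 40 µL received 100 nL stock; the first replicate is given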
Ecoli growth = E. coli growth inhibition; AID 1053175; OD600 absorbance (concentration not given with the values); Escherichia coli growth, OD600, 23 h; stronger effect = lower value; actives 0.21% (n = 330,000);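 active means OD600 absorbance below the run mean of sample wells minus 3.6 SD, in any replicate, cut at about 0.56 in these data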;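 further: stock transfer was 300 nL into about 60 µL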
AF4-AF9 inh = inhibitors of human MLL-AF4/AF9 interaction. inhibition, % at 10 µM. AlphaScreen, biotin-AF4 peptide binding to FLAG-AF9. AID 651704. actives 0.47% (n = 350,000);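 active means every replicate reaching a set inhibition limit, whatever the replicate mean, cut at about 25% in these data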;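 further: 0% = plate neutral control median and 100% = total signal loss; the record names both 10 and 1 µM as test concentration; the first replicate is given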
Target sequence (P42568 whole entry, looked up): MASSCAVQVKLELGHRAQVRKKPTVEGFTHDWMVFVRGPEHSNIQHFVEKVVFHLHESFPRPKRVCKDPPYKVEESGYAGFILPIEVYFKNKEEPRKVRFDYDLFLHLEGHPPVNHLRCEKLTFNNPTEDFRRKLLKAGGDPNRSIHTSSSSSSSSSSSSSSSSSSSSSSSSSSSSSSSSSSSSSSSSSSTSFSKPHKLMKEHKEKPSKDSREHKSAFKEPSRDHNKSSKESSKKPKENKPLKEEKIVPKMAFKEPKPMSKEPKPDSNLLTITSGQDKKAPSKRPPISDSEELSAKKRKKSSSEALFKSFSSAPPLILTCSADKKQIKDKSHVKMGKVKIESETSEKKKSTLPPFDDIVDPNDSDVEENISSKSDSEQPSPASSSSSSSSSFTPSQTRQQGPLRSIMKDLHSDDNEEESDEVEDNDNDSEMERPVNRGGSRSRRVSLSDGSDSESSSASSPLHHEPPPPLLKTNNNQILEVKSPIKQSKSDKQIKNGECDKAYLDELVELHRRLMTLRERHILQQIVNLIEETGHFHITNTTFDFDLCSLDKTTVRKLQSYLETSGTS
FGF22 binding = binders of recombinant human FGF22 by thermal shift; Q9HCT0; SYPRO orange fluorescence; percent of sucrose octasulfate shift, DMSO zero; calls only at 9.99 µM; actives 1.5% (n = 340,000);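 active means melting point raised past a set limit in the mean and every replicate; three in four hits are not shown here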
Target sequence (Q9HCT0 whole entry, looked up): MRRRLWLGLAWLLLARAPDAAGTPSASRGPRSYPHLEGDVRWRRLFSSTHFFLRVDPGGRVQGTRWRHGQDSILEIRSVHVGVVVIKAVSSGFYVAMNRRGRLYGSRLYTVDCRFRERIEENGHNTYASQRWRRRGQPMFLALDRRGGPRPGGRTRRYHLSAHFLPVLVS
T cruzi inh = T. cruzi replication inhibition; T. cruzi beta-gal in NIH3T3, luminescence, 90 h; inhibition, % (test concentration not listed); actives 1.4% (n = 300,000);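 active means mean inhibition across valid replicates above about 55%, limit read from the data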;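 further: signal also drops with host cell toxicity which is not excluded here; 0% = plate median of DMSO wells and 100% = zero luminescence signal; higher percent means less beta-gal luminescence so fewer parasites; stock transfer was 50 nL into about 50 µL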
A1 inh = inhibitors of the anti-apoptotic protein A1, read as caspase activation; MEF A1-2A-BIM cells, Caspase-Glo 3/7 luminescence, 3 h; percent of clofoctol response, vehicle zero; caspase activation, % (concentration not given with the values); actives 0.066% (n = 330,000);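 active means over half of replicate activation scores above 10%, or exactly half above 10 with the replicate mean above 10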;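 further: wells of about 30 µL received 50 nL stock; many hits fall short of the cut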
rRNA inh HTS = selective bacterial rRNA inhibition in E. coli; GFP signal change (wild-type ribosome), % (no concentration beside the values); E. coli WT GFP vs humanized-ribosome RFP mutants, fluorescence, 24 h; stronger effect = lower value; DMSO median 0, no signal -100; actives 1.6% (n = 350,000);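 active means significant combined selectivity score with lowered wild-type GFP, culture density cut under 30%, mutant RFP and density less affected; inactive means any of these conditions unmet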; further: one replicate is shown; some compounds called inactive have numbers as strong as hits
UCH37 inh = inhibitors of human deubiquitinating enzyme UCH37. purified proteasome/UCH37, Ub-AMC cleavage fluorescence. inhibition, % (concentration not given with the values). actives 0.33% (n = 330,000). AID 588478;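 active means mean of two replicates above 20%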;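 further: 0% = compound-free wells with enzyme and 100% = wells lacking proteasome; stock transfer was 100 nL into about 20 µL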
Target sequence (Q9Y5K5 whole entry, looked up): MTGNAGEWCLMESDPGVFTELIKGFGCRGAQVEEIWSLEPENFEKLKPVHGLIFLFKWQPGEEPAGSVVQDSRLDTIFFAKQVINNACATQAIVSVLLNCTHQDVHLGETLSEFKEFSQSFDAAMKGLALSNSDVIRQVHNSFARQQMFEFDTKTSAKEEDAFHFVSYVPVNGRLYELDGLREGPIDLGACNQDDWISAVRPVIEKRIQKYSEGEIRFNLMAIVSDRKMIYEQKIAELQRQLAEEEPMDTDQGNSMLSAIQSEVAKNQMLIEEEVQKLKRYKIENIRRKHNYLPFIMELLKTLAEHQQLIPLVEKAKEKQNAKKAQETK
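System: Proteasome-associated human UCH37 deubiquitinase; Input: 0.15 nM proteasome in added enzyme buffer; Also added: Ub-AMC substrate from 1 µM stock; Incubation: 30 min compound-proteasome preincubation then 25 min substrate reaction, room temperature; Detection: fluorescence, ex 355 nm, em 460 nm; Read-out: % inhibition of Ub-AMC cleavage fluorescence; Benchmarks: no-proteasome and no-compound wells.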
rRNA inh HTS OD600 = second read-out of rRNA inh HTS, no call of its own (marks repeat the call); OD600 change, %; measured here: OD600 growth;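 optical density of the mix in the first replicate; 0 = DMSO median and -100 = no signal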
rRNA inh HTS RFP = recorded beside rRNA inh HTS, whose call it bears; RFP signal change, %; measured here: RFP humanized mutant strains;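 first replicate; 0 = DMSO median and -100 = no signal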
* marks the source's active call; other numbers are inactive results; i = inactive; · = no result given; & = joins results of further samples. These rows are one share of the data; the hit share may differ from the screen's.

no. | Compound | rRNA inh HTS RFP | rRNA inh HTS | AF4-AF9 inh | rRNA inh HTS OD600 | Ecoli growth | T cruzi inh | FGF22 binding | UCH37 inh | A1 inh | Beta cell apopt
1 | COc1ccc(N(C(=O)c2ccn[nH]2)C(C(=O)NC2CCCC2)c2ccc(F)cc2)cc1 (centres undefined) | 1.4 | 5.5 | 1.4 | 5.9 | 0.705 | -1.4 | i | 4.6 | 0.6 | -5.4
2 | O=C(O)C1(Nc2ccc(Br)cc2)CCCC1 | · | · | -3.5 | · | 0.696 | · | i | 2.3 | · | ·
3 | Cc1cc(C)n(-c2cccc(Cl)c2)c(=O)c1C#N | · | · | · | · | 0.69 | -3.3 | · | 0.9 | -1.3 | -11.0
4 | Cc1cccc(C)c1NC(=O)CN(C)C(=O)CCC(=O)c1ccccc1 | -0.2 | 2.3 | -5.4 | 4.4 | 0.676 | · | i | -3.4 | 0.3 | 0.6
5 | O=c1[nH]c(N/N=C/c2ccc(O)cc2)nc2ccccc12 | · | · | -0.1 | · | · | -11.6 | i | · | -12.1 | 3.0
6 | CCC(/C=N/NC(=O)C(N)=O)CC | 3.3 | -0.9 | -2.0 | 3.8 | · | 12.4 | i | · | -1.1 | -5.1
7 | C#CCOc1ccc(/C=C2/C(=O)ON=C2C)cc1Br | -0.9 | 5.5 | 0.4 | 12.2 | 0.67 | -0.6 | i | 6.8 | 0.0 | -9.4
8 | CC(C)OCCCNC(=O)CCc1nc(-c2ccccc2)no1 | · | · | · | · | 0.736 | -9.6 | · | 0.7 | 0.9 | -4.2
9 | C=CCN1C(=O)C2C(C(=O)NC3CCCCC3)C3C=CC2(O3)C1C(=O)NC1CCCC1 (centres undefined) | · | · | · | · | 0.69 | -8.4 | · | 1.0 | 1.2 | -5.8
10 | COc1ccc(NC(=O)CO/N=C(\C)c2cccs2)cc1 | -5.9 | -6.8 | 1.3 | -14.3 | · | -4.9 | i | · | 0.7 | -1.7
11 | CCCC(=O)Nc1nnc(SCC(=O)NCc2ccco2)s1 | · | · | · | · | 0.674 | -12.0 | · | 3.8 | -0.2 | -4.8
12 | CCN(CC)S(=O)(=O)c1ccc(Cc2ncc(C(F)(F)F)cc2Cl)s1 | · | · | · | · | 0.674 | 24.2 | · | 2.0 | -1.2 | 10.9
13 | CCCOc1ccc(C(=O)OCC(=O)c2c(N)n(C)c(=O)n(C)c2=O)cc1OCC | 0.0 | 20.9 | -0.6 | 18.3 | 0.631 | 12.6 | i | -0.1 | 1.2 | -9.1
14 | CN1C(=O)Cc2cc(S(=O)(=O)N3CCN(c4cccc(Cl)c4)CC3)ccc21 | 4.8 | 7.5 | 1.8 | 0.3 | 0.669 | -10.6 | i | 7.5 | 0.9 | ·
15 | CCc1nccn1S(=O)(=O)c1cc(C)c(OC)cc1C | · | · | · | · | 0.728 | -5.1 | · | 5.0 | 0.1 | -8.8
16 | CCOc1ccccc1NC(=O)Cn1c(=O)sc2ccccc21 | 3.6 | 15.4 | 0.2 | 20.7 | 0.686 | 6.4 | i | -0.1 | 0.1 | 2.0
17 | Cc1ccc(-n2c(C)nn(-c3ncc(C(F)(F)F)cc3Cl)c2=O)cc1 | · | · | · | · | 0.707 | -0.6 | · | 2.1 | 0.6 | -4.5
18 | CCCCNC(=O)O[C@@H]1C[C@H]2CCC(=O)N3CC[C@@H](C1)[C@@H]23 | 10.2 | 8.1 | -0.7 | -4.9 | · | -23.3 | i | 5.7 | 1.1 | 3.3
19 | O=C(Nc1cccc([N+](=O)[O-])c1)C1C2/C=C\CCCCC21 (centres undefined) | -5.4 | 10.9 | -13.1 | 14.0 | 0.71 | 20.9 | i | 4.5 | 0.2 | 19.6
20 | COc1ccc(S(=O)(=O)N(CC(=O)N/N=C/c2cccs2)c2cc(C)cc(C)c2)cc1OC | 1.6 | -1.0 | -9.2 | -6.2 | · | 6.1 | i | · | 0.2 | 8.0
21 | CN1C(=O)/C(=C/C=C2/CCCN2C)N(C)C1=S | -1.9 | -2.1 | 3.9 | -1.3 | 0.689 | -13.4 | i | 34.3* | 0.5 | 1.8
22 | Cc1ccc2cc3cc(C(=O)N4CCCCCC4)oc3nc2c1 | · | · | · | · | 0.713 | 8.2 | · | -27.6 | 0.1 | 2.5
23 | COc1cc(COc2ccc3c(C)c(Cc4ccccc4)c(=O)oc3c2C)cc(OC)c1OC | · | · | · | · | 0.764 | 44.1 | · | -24.5 | 0.5 | ·
24 | COc1ccc(/C=N/NC(=S)Nc2ccccc2)cc1COc1ccc(Br)cc1 | -3.7 | -8.3 | 4.7 | -4.6 | · | 38.0 | i | · | -0.1 | 13.5
25 | O=C(NCc1ccccc1)c1ccc(Br)o1 | 1.5 | 9.5 | 11.5 | 11.1 | 0.645 | · | i | 0.2 | -1.0 | 4.4
26 | O=C(CCn1ccnc1)Nc1cc(Cl)ccc1O | -0.4 | 3.4 | -0.4 | 12.6 | 0.633 | -1.3 | i | 2.2 | 2.9 | -4.4
27 | Cc1ccc2nc(NC(=S)NC(=O)c3ccc(OC(C)C)cc3)sc2c1 | -0.8 | 4.7 | 5.1 | -1.8 | 0.712 | -14.3 | i | 2.5 | 0.2 | 3.3
28 | COc1ccc(OCCCC(=O)Nc2ccc(OC)c(S(=O)(=O)N3CCOCC3)c2)cc1 | · | · | -0.9 | · | 0.638 | · | i | 5.7 | -0.5 | 8.1
29 | CC(=O)c1c(N=CN(C)C)nc(C)nc1-c1ccccc1 | · | · | · | · | 0.768 | -16.8 | · | -6.5 | -0.4 | -6.1
30 | O=C(COC(=O)COc1ccccc1F)Nc1cccc(S(=O)(=O)N2CCCCC2)c1 | · | · | 3.3 | · | 0.703 | · | i | 1.3 | -0.5 | -4.1

2 entries picked at random from the list so far, as already listed:
no. | Compound | rRNA inh HTS RFP | rRNA inh HTS | AF4-AF9 inh | rRNA inh HTS OD600 | Ecoli growth | T cruzi inh | FGF22 binding | UCH37 inh | A1 inh | Beta cell apopt
20 | COc1ccc(S(=O)(=O)N(CC(=O)N/N=C/c2cccs2)c2cc(C)cc(C)c2)cc1OC | 1.6 | -1.0 | -9.2 | -6.2 | · | 6.1 | i | · | 0.2 | 8.0
24 | COc1ccc(/C=N/NC(=S)Nc2ccccc2)cc1COc1ccc(Br)cc1 | -3.7 | -8.3 | 4.7 | -4.6 | · | 38.0 | i | · | -0.1 | 13.5

Continued.
no. | Compound | rRNA inh HTS RFP | rRNA inh HTS | AF4-AF9 inh | rRNA inh HTS OD600 | Ecoli growth | T cruzi inh | FGF22 binding | UCH37 inh | A1 inh | Beta cell apopt
31 | Cc1ccc(C(=O)N/N=C2\CCc3ccccc32)c(C)c1 | -2.7 | -0.1 | 3.6 | 0.9 | · | -11.1 | i | · | -2.5 | 1.0
32 | COc1ccc(-c2c(C)nn(-c3ccccc3)c2NC(C)=O)cc1OC | 0.4 | 5.2 | 4.2 | 1.0 | 0.675 | 6.2 | i | 1.1 | 0.7 | -12.9
33 | O=C(O)c1ccc2c(c1)C(=O)N(c1ncccn1)C2=O | · | · | · | · | 0.677 | -2.4 | · | 1.8 | -0.4 | -2.7
34 | Cc1sc2nc3n(c(=O)c2c1C)NC(=O)CC3 | · | · | · | · | 0.741 | -13.2 | · | 3.9 | -0.3 | 1.4
35 | CCCc1cc(=O)[nH]c(SCC(=O)Nc2oc(C)c3c(C)n[nH]c(=O)c23)n1 | 3.5 | 16.9 | -0.4 | 15.7 | 0.603 | -4.0 | i | 1.1 | 0.1 | ·
36 | CN(C)C(=O)CCc1ccc2c3c([nH]c2c1)[C@]1(CCC2CCCC2)[C@@H](C(=O)N2CCOCC2)C[C@H](CC(=O)NCCN2CCOCC2)C(=O)N1CC3 | 5.6 | 11.2 | -1.5 | 17.4 | 0.681 | · | i | -0.5 | · | ·
37 | COc1ccc(NC(=O)Nc2cccc3c2O[C@H](CN(C)C(=O)Nc2ccc4c(c2)OCO4)[C@@H](C)CN([C@H](C)CO)C3=O)cc1 | -1.6&4.1 | -3.7&3.9 | 0.2&-0.5 | 1.8&1.2 | 0.763 | · | i | 2.2 | -0.1 | -1.6
38 | COc1cc(/C=N/NC(=O)c2c(C)nnn2-c2nonc2N)ccc1O | -1.1 | 17.2 | -0.9 | -1.2 | · | 13.2 | i | · | 0.4 | 1.0
39 | O=C(Oc1ccccc1N1C(=O)CCC1=O)c1ccco1 | · | · | · | · | 0.674 | -9.3 | · | 1.0 | -0.5 | -4.7
40 | Cc1cc(C)c(NC(=O)NC(=O)c2ccc(F)cc2)c(C)n1 | · | · | · | · | 0.672 | -17.2 | · | 0.1 | -1.0 | ·
41 | Cc1nc2cc(NC(=O)N3CCCCC3)ccc2n1C | · | · | · | · | 0.687 | -3.8 | · | 5.9 | 0.0 | -4.8
42 | Nc1nc2n(n1)C(c1ccc(F)cc1)CC(c1ccc(F)cc1)N2 (centres undefined) | · | · | · | · | 0.7 | 23.7 | · | 2.6 | 1.3 | -3.8
43 | O=C(c1sccc1Br)N1CCN(Cc2ccc3c(c2)OCO3)CC1 | -2.2 | -13.0 | 2.4 | -13.3 | 0.644 | 1.6 | i | 6.8 | -0.8 | -5.1
44 | COc1ccc(Cl)cc1NC(=O)CSc1nnc(Cc2ccc(C)cc2)c(=O)[nH]1 | -14.8 | -50.6 | -11.7 | -74.8 | 0.675 | 2.1 | i | 2.6 | -0.3 | ·
45 | Cc1ccc(C)c(N2CCN(C(=O)c3cc(S(=O)(=O)N4CCOCC4)ccc3F)CC2)c1 | -1.9 | 4.7 | 5.2 | 5.6 | 0.685 | 12.3 | i | 1.2 | 0.4 | -7.1
46 | COc1cccc(CNCC(O)COc2ccc(C(=O)c3ccccc3)cc2)c1 (centres undefined) | 5.9 | 0.2 | 4.3 | -1.2 | 0.677 | 53.2 | i | 3.6 | -2.6 | 5.6
47 | C/C(=N\O)C(=O)C(CN1CCCCC1)CN1CCCCC1 | 0.1 | 17.4 | 14.0 | 14.0 | · | -7.0 | i | · | 0.0 | 15.9
48 | O=C(COc1ccc(C(=S)N2CCC(Cc3ccccc3)CC2)cc1)N1CCOCC1 | -5.2 | -28.7 | 0.9 | -39.7 | 0.647 | 8.6 | i | 5.8 | 0.4 | -0.2
49 | Cc1ccc(-c2nnn(CC(=O)N3CCCCC3)n2)c(-n2cnnn2)c1 | · | · | · | · | 0.661 | 3.8 | · | -0.5 | -1.6 | 0.4
50 | NC(=Nc1ccccc1)Nc1ccccc1 | -2.6&1.4 | 3.2&22.8 | 1.5 | 9.6&10.9 | 0.692 | -3.5 | i | 2.7 | -1.6 | -3.9
51 | CCOc1cccc2sc(N(CCN(CC)CC)C(=O)c3cccc([N+](=O)[O-])c3)nc12 | 9.0 | 1.2 | 16.3 | 8.9 | 0.668 | 10.0 | i | 1.6 | 0.0 | 2.8
52 | COc1ccc(-n2nc(C(=O)Nc3ccc4c(c3)OCO4)c3ccccc3c2=O)c(OC)c1 | · | · | · | · | 0.707 | · | · | 0.8 | 0.7 | -0.6
53 | CC(C(=O)Nc1cccc(S(=O)(=O)N2CCOCC2)c1)N1CCN(c2ccc(F)cc2)CC1 (centres undefined) | 2.0 | -0.5 | 5.7 | 6.0 | 0.663 | 33.5 | i | 4.0 | -0.2 | 4.4
54 | C=CCn1c(SCc2nc3sc(C(=O)O)c(C)c3c(=O)[nH]2)nnc1-c1ccc(F)cc1 | 0.3 | -11.2 | -2.3 | -9.9 | 0.652 | -10.2 | i | 1.3 | 1.2 | 1.6
